# Compound activity from PubChem BioAssay.
# KCNQ2 inh = KCNQ2 potassium channel inhibitors, primary screen, cell-based, CHO-K1, FluxOR thallium flux, B-score (AID 2156). O88943. 20 min; stronger effect = lower value; only compounds with negative scores are shown here; some inactives read as strong as hits. B-score at 10 µM. 310,000 compounds, 1.1% hits;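 active means fluorescence ratio B-score at most minus 3 library SDs, with starting brightness B-score within 2 library SDs, cut at about -5.5 in these data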
# Target sequence (O88943 whole entry, looked up): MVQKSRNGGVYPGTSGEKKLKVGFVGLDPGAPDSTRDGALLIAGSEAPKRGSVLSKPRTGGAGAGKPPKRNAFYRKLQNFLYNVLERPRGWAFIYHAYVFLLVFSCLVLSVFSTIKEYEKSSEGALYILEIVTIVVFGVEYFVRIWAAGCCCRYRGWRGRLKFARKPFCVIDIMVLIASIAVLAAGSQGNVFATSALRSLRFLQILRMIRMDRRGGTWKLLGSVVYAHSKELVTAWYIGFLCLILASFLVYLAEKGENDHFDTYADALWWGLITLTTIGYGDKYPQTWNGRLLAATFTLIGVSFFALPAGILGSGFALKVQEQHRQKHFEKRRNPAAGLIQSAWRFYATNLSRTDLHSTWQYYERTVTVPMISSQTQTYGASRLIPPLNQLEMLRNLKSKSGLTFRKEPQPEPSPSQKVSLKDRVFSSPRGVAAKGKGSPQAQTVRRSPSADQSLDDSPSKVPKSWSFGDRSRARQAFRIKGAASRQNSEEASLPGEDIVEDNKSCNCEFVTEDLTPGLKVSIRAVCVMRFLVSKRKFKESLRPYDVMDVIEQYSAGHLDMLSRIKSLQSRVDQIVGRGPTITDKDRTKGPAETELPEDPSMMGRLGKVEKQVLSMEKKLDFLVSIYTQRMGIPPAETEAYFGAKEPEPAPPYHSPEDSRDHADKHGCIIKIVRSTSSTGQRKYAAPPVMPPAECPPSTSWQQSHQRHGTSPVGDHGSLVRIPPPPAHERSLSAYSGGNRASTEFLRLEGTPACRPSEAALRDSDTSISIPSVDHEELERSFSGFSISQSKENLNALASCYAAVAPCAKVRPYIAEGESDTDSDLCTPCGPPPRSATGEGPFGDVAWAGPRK
# KCNQ2 inh baseline = second read-out of KCNQ2 inh, no call of its own (marks repeat the call); B-score; measured here: initial fluorescence intensity artifact check;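 brightness before thallium and not channel activity; 0 = typical well and far values either way flag optical interference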
# Starred values were filed as active, the others as inactive; i = inactive; ! = repeats disagree. Not all compounds are listed; the hit share may differ from the screen's.
SMILES,KCNQ2 inh,KCNQ2 inh baseline
CC(=O)NCC1CCCN(Cc2cn(-c3ccccc3F)nc2-c2cc(C)sc2C)C1 (configuration not stated),i,-0.35
Nc1ccccc1SCc1ccccc1Cl,i,-0.02
CC(=O)N1CCn2c3ccc(C)cc3c3cccc1c32,i,2.7
CCOC(=O)C(C)/C(C)=N\Nc1ccc([N+](=O)[O-])cc1[N+](=O)[O-] (configuration not stated),i,-2.4
Cc1nc(CC(=O)Nc2nc(C(C)(C)C)cs2)cs1,i,0.39
CC(NC(=O)C1CCN(c2nnc(-n3cccc3)s2)CC1)C12CC3CC(CC(C3)C1)C2 (configuration not stated),i,-0.7
Cc1ccc(CNS(=O)(=O)c2ccc3c(c2)NC(=O)CO3)cc1,i,-0.06
N/C(=N\OC(=O)c1ccc2c(c1)OCO2)c1ccc(Br)cc1,i,1.3
CCOc1ccccc1N(CC(=O)Nc1ccc(S(=O)(=O)N2CCOCC2)cc1)S(=O)(=O)c1ccccc1,i,0.12
O=C(Nc1cccc(NC(=O)c2ccc(Br)o2)n1)c1ccc(Br)o1,i,-0.14
COC1CCCCC1Nc1ccc(C)c(C)c1 (configuration not stated),i,-1.5
O=c1[nH]c2ccc(S(=O)(=O)Nc3ccc(Br)cc3)cc2[nH]1,i,-0.35
O=c1c(/C=N/OCc2ccc(Cl)cc2Cl)c[nH]n1-c1cccc(Cl)n1,i,-2.6
CCOc1cc(C2CC(=O)c3c(ccc4ccccc34)N2)ccc1O (configuration not stated),i,0.23
Cc1ccc(C)c(N2CCN(C(=O)C(Cc3ccccc3)n3cccc3)CC2)c1 (configuration not stated),-7*,1.6*
CC1CC(C)CN(S(=O)(=O)c2ccc3c(c2)C(C)(C)C(=O)N3C)C1 (configuration not stated),i,2.4
Cc1ccc2cc(CN(CC3CCCO3)C(=S)Nc3ccccc3)c(=O)[nH]c2c1C (configuration not stated),i,2.5
Cc1ccc(C)c(Nc2ccc(C(=O)NCCc3ccccc3)cn2)c1,i,0.64
CCCCOC(=O)c1ccc(NC(=O)C2CCCO2)cc1 (configuration not stated),i,2.2
CCOc1ccccc1NC(=S)NNS(=O)(=O)c1c(C)cc(C)cc1C,i,1.2
O=C(CN1C(=O)C2CC=CCC2C1=O)Nc1nc2ccc(F)cc2s1 (configuration not stated),-6.7*,-0.25*
Cc1ccc(C2c3[nH]c4ccccc4c3C[C@H]3C(=O)N(c4ccccc4C(=O)NCCN4CCOCC4)C(=O)N23)cc1 (some centres not stated),i,0.94
O=C1CCC(=O)N1OCCCOc1ccc(Br)cc1Cl,i,1.9
CC1(C)c2[nH]c3ccccc3c2C[C@H]2C(=O)N(Cc3ccccc3F)C(=O)N21,i,0.45
CCc1ccc(CN(C)C(=O)c2cc(=O)c3ccccc3o2)cc1,i,-2
CC(=O)C1=C(O)C(=O)N(c2cc(C(C)(C)C)on2)C1c1ccc(Br)cc1 (configuration not stated),i,2.9
CC(=O)OCCNC(=O)c1cccnc1,i,-0.89
CCOC(=O)N1CCN(c2c(N3CCN(C(=O)OCC)CC3)c(=O)c2=O)CC1,i,1.5
CCCc1cc(=O)[nH]c(SCC(=O)c2cc(C)n(-c3cc(C)on3)c2C)n1,i,1.9
CC(=O)Nc1ccc(NC(=O)N2CCCCC2)cc1,i,-1.6
COc1cc(N2C(=O)CSC2=S)cc(OC)c1OC,i,-0.13
O=C(CCc1c[nH]c2ccccc12)N1CCCC1,i,-1.4
Cc1ccc(CCNC(=O)Cn2ncc3c([nH]c4ccccc43)c2=O)cc1,i,0.21
COC(CN(C)C(C(=O)NC1CCCCC1)c1ccccc1)OC (configuration not stated),i,-1.4
Cc1nn(Cc2noc(C(=O)NCc3ccc4c(c3)OCO4)n2)c(C)c1Br,i,-0.81
CCOC(=O)c1cc(S(=O)(=O)N2CCC(C)CC2)cn1C,i,-0.72
CCOC(=O)CSc1nnc(CNc2ccc(Cl)cc2)n1Cc1ccccc1,i,0.52
O=C(N/C(=C\c1ccc(Br)cc1)C(=O)N1CCCC1)c1cccs1,i,-0.27
CCN(CC)CCCN(Cc1cc2cc3c(cc2[nH]c1=O)OCCO3)C(=O)Nc1ccccc1,i,0.05
O=C(c1ccc2c(c1)OCO2)C1CCCN(Cc2cc(F)ccc2-n2cccn2)C1 (configuration not stated),i,0.32
COc1cccc(CNC(=O)CCC2CCCN(C(=O)c3cccc(Cl)c3)C2)c1 (configuration not stated),i,0.05
Cc1sc2nc(SCC(=O)NCc3ccco3)n(-c3ccccc3)c(=O)c2c1C,i,1.2
O=C(/C=C/c1ccco1)N(Cc1ccc(Cl)cc1)C1CCS(=O)(=O)C1 (configuration not stated),i,-0.26
CC1=C(C(=O)O)N2C(=O)C(NC(=O)c3nn(C)cc3Cl)C2SC1 (configuration not stated),i,-0.04
CCc1cc(=O)oc2c(CN3CCCC3)c(O)c(Cl)cc12,i,-2.9
COc1ccc(-c2csc(N)n2)cc1F,i,0.13
O=C(c1cc(-c2cccc(Cl)c2)on1)N1CCN(c2ccc(F)cc2)CC1,i,-1.7
CCOC(=O)c1[nH]c(C)c(/C(O)=C2\C(=O)C(=O)N(CCN(C)C)C2c2ccc(C)o2)c1C (configuration not stated),i,-1.2
Cc1cccc(N(CC(=O)NCCSc2ccccn2)S(=O)(=O)c2ccccc2)c1,i,0.37
COc1cccc(C(=O)c2c(C)c(CCC#N)n3ccccc23)c1OC,i,-0.33

# 15 entries from above, ordered by SMILES length, rising.
SMILES,KCNQ2 inh,KCNQ2 inh baseline
COc1ccc(-c2csc(N)n2)cc1F,i,0.13
O=C(CCc1c[nH]c2ccccc12)N1CCCC1,i,-1.4
Cc1nc(CC(=O)Nc2nc(C(C)(C)C)cs2)cs1,i,0.39
CCc1cc(=O)oc2c(CN3CCCC3)c(O)c(Cl)cc12,i,-2.9
CCOc1cc(C2CC(=O)c3c(ccc4ccccc34)N2)ccc1O (configuration not stated),i,0.23
Cc1ccc(C)c(Nc2ccc(C(=O)NCCc3ccccc3)cn2)c1,i,0.64
CCOC(=O)CSc1nnc(CNc2ccc(Cl)cc2)n1Cc1ccccc1,i,0.52
CCOc1ccccc1NC(=S)NNS(=O)(=O)c1c(C)cc(C)cc1C,i,1.2
O=C(N/C(=C\c1ccc(Br)cc1)C(=O)N1CCCC1)c1cccs1,i,-0.27
Cc1ccc(CCNC(=O)Cn2ncc3c([nH]c4ccccc43)c2=O)cc1,i,0.21
Cc1nn(Cc2noc(C(=O)NCc3ccc4c(c3)OCO4)n2)c(C)c1Br,i,-0.81
O=C(c1ccc2c(c1)OCO2)C1CCCN(Cc2cc(F)ccc2-n2cccn2)C1 (configuration not stated),i,0.32
CCN(CC)CCCN(Cc1cc2cc3c(cc2[nH]c1=O)OCCO3)C(=O)Nc1ccccc1,i,0.05
CC(NC(=O)C1CCN(c2nnc(-n3cccc3)s2)CC1)C12CC3CC(CC(C3)C1)C2 (configuration not stated),i,-0.7
Cc1ccc(C2c3[nH]c4ccccc4c3C[C@H]3C(=O)N(c4ccccc4C(=O)NCCN4CCOCC4)C(=O)N23)cc1 (some centres not stated),i,0.94

# (more compounds)
SMILES,KCNQ2 inh,KCNQ2 inh baseline
Cc1noc(C)c1CCC(=O)NC1CCCN(Cc2ccc(CC(C)C)cc2)C1 (configuration not stated),i,-1.6
CCCn1nc(NC(=O)C2CCCO2)c2cc3cc(C)ccc3nc21 (configuration not stated),i,2.2
CC(=O)c1c(C)[nH]c(C(=O)NC2CCSc3ccccc32)c1C (configuration not stated),i,0.01
COc1cc(NC(=O)CSc2ccc(-c3cccnc3)nn2)cc(OC)c1,i,0.1
CC(C(=O)Nc1ccc2c(c1)OCCO2)N(C)Cc1c(F)cccc1Cl (configuration not stated),i,0.01
CCOc1ccc(OCc2ccc(C(=O)N3CCc4ccccc4C3)o2)cc1,-6.1*,-3.3*
Cc1ccc(NC(=O)CSc2ccc(-c3ccco3)nn2)c(C)c1,i,0.01
CC(=O)c1cccc(NC(=O)NN2CCN(C)CC2)c1,i,-0.38
Cc1ccc(NS(=O)(=O)c2cccc3cccnc23)c(Cl)c1,i,-0.03
CCOc1ccc(CCNC(=O)CN2CCN(Cc3ccccc3C)C2=O)cc1OCC,i,0.58
COc1cc(S(=O)(=O)N(Cc2ccc(C)cc2)C2CCCCC2)ccc1-n1cnnn1,i,1.2
CCOC(=O)C1=C(N)Oc2cc(C)oc(=O)c2C1c1cccnc1 (configuration not stated),i,-1.4
COc1ccc(NC(=O)C(CC(C)C)NC(=O)c2ccccc2C)cn1 (configuration not stated),-7.7*,-0.93*
O=C(CSc1nc2ccccc2c(=O)n1-c1ccccc1)N1CCCC1,i,1.1
Cc1ccc2c(CN3CCN(Cc4ccccc4)CC3)cc(=O)oc2c1C,i,-0.34
COc1ccc(C(=O)CCC(=O)NCc2cc(OC)cc(OC)c2)cc1,i,-2.1
CC1(C)Cc2nc(-c3ccccc3)nc(SCC(=O)N3CCCC3)c2CO1,i,-1.4
O=C(CSc1nc2ccsc2c(=O)n1Cc1ccccc1)NCC1CCCO1 (configuration not stated),i,0.63
COc1ccc(N2C(=O)C(CC(=O)Nc3ccc(F)cc3)N(CCc3cccs3)C2=O)cc1 (configuration not stated),i,1.3
COc1ccc(/C=C2/SC(=O)N(CC(=O)Nc3cc(C)on3)C2=O)cc1OC,i,1.4
COc1ccc(-n2ncc3c(=O)n(CC(=O)Nc4ccc(S(=O)(=O)N5CCOCC5)cc4)cnc32)cc1,i,0.02
Cc1c(O)cccc1C(=O)N[C@@H](CSc1ccccc1)[C@H](O)CN1C[C@H]2CCCC[C@H]2C[C@H]1C(=O)NC(C)(C)C,-5.7*!,0.54*!
COc1ccc2c(c1)oc(=O)c1cc(OC)ccc12,i,0.3
COc1ccc(-c2ccc(CCC(=O)O)n2Cc2ccco2)cc1,i,0.82
COC(=O)c1cccc(Nc2c3c(nc4ccccc24)CCC3)c1,-6.6*,-0.4*
COc1ccccc1CNS(=O)(=O)c1ccc(Br)s1,i,0.48
Cc1ccc(N2C(=S)NC3c4ccccc4OC2(C)C3C(=O)N(C)C)cc1 (configuration not stated),i,-0.01
O=c1ccc(-c2nc3ccccc3n2Cc2ccccc2Cl)c[nH]1,i,2.2
O=S(=O)(c1ccc(Br)cc1)N1CCN(c2ccccc2)CC1,i,0.02
COC(=O)CCCCCc1ccc(C(C)=O)s1,i,0.5
NNC(=O)c1ccc(COc2ccc([N+](=O)[O-])cc2)o1,i,0.56
CCc1nnc(NC(=O)CN2CCN(c3ccccc3F)CC2)s1,i,0.14
CN(Cc1ccon1)C(=O)C1CCC(=O)N(Cc2ccc(Cl)cc2)C1 (configuration not stated),i,-0.95
CN(C)c1ccc(NC(=O)CSc2nnc(C3CCCCC3)n2N)cc1,i,-0.01
CCN(CC)CCN(C(=O)c1cccc([N+](=O)[O-])c1)c1nc2ccc(OC)cc2s1,i,1.3
COC(=O)c1ccc(C(=O)OC)c(NC(=S)N2CC(C)CC(C)C2)c1 (configuration not stated),i,0.89
COc1cccc(NC(=O)c2cc(Cl)nnc2Cl)c1,i,-1.9
CCOC(=O)N1CCC(N2CCCC(C(=O)c3ccccc3OC)C2)CC1 (configuration not stated),i,0.77
CCCCOc1ccc(S(=O)(=O)N2CCCCCC2)cc1,i,-2.1
O=C(Cc1ccccc1)NNC1=NS(=O)(=O)c2ccccc21,i,0.22
COc1cccc2cc(C(=O)NCc3ccccc3)c(=N)oc12,i,1.4
COc1cccc(C(=O)NC2CCN(CC(=O)Nc3cccc(C)c3C)CC2)c1,i,0.65
CC(=O)c1cc(CC(=O)N2CCc3c([nH]c4ccccc34)C2c2ccccn2)cs1 (configuration not stated),i,-0.02
COC(=O)C1=C(C(=O)OC)[C@@H]2N(C)c3ccccc3[C@@]23C[C@@H](C(=O)OC)N(C(=O)c2ccc(Br)cc2)C3=N1,i,1.1
Cc1c(CC(=O)NC(C)C)c(=O)oc2cc3c(cc12)CCC(C)(C)O3,i,-0.18
CCOC(=O)c1[nH]c(C)c(/C(O)=C2\C(=O)C(=O)N(CCCn3ccnc3)C2c2ccncc2)c1C (configuration not stated),i,-0.23
COc1cc(N(C)C)c([N+](=O)[O-])cc1C(=O)N1CCN(Cc2ccccc2)CC1,i,0.03
O=c1cc(C(F)(F)F)[nH]c2c(OC(F)(F)F)cccc12,i,-1.6
CCOP(=O)(OCC)C(Nc1cccc(C(F)(F)F)c1)c1ccc(C)cc1 (configuration not stated),i,2.1
O=C(c1cnc2sccn2c1=O)N1CCN(c2ccccc2Cl)CC1,i,0.94

# Next section
SMILES,KCNQ2 inh,KCNQ2 inh baseline
O=C1CCSc2ccc(Cl)cc2N1Cc1ccccc1,i,-1.2
COc1ccccc1/C=C1\C(=O)Nc2ccccc21,i,3.5
COc1ccccc1/C=C/C(=O)NCC(=O)N1CCC(N(C)C2CCCC2)CC1,i,0.18
CN(C)C(=O)c1c(NC(=O)c2ccccc2)sc2c1CCC2,i,0.08
COC(=O)c1cnc(Oc2ccc(NC(=O)NC(=O)c3c(F)cccc3F)cc2)cc1C(F)(F)F,i,2.3
COC(=O)c1cc(NC(=O)c2cc(-c3ccc(OC)cc3)oc2C(F)(F)F)ccc1N1CCOCC1,i,-0.46
Cc1nc2ccccn2c1/C(O)=C1\C(=O)C(=O)N(CCCn2ccnc2)C1c1ccncc1 (configuration not stated),i,0.89
CCOc1cc(CNc2ccc(S(N)(=O)=O)cc2)cc(Cl)c1OC,i,0.94
CC(C)(C)n1nnnc1C(c1cccs1)N1CCCc2ccccc21 (configuration not stated),i,0.74
COc1cc(C2C(C(=O)c3cc4ccccc4o3)=C(O)C(=O)N2CCN2CCOCC2)ccc1OCCC(C)C (configuration not stated),i,1.3
COC(=O)c1ccccc1NC(=O)c1ccc(COc2cc(C)cc(C)c2)o1,-6.4*,1.9*
